# High-throughput results as filed in PubChem.
# Mtb MbtI inh: blocks the Mycobacterium tuberculosis siderophore enzyme MbtI; P9WFX0; purified MbtI enzyme, fluorescence intensity read-out; inhibition, %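 (about 17 µg/mL by stock and volumes)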; 100,000 compounds, 0.89% hits; AID 493033;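 active means above 50% in both replicates, above 80% if mildly self-fluorescent; inactive means the rest, strongly fluorescent compounds included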;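 further: 0% = mean of negative and 100% = mean of positive controls; one replicate is shown; some compounds called inactive have numbers as strong as hits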
# MenB inh: inhibitors of Mycobacterium tuberculosis MenB enzyme. MenB enzyme assay, absorbance read-out; some hits fall short of the stated cut. 100,000 compounds, 0.43% hits. inhibition, %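 (about 12 µg/mL by stock and volumes)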;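 active means mean of two replicates above 30%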;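 further: 0% = no compound and 100% = wells with inactive enzyme; the first replicate is given; strong numbers were not always called active; inactives centre near -10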
# Target sequence (P9WNP5 whole entry, looked up): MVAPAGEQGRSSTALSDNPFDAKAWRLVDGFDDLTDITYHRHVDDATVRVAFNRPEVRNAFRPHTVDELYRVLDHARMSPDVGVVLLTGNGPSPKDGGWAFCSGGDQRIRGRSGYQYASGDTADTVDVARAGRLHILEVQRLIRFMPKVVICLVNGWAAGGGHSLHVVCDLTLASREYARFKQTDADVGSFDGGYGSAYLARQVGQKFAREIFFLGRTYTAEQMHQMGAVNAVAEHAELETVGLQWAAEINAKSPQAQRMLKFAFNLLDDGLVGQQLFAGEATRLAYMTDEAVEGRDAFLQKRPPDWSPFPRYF
# PV pol inh: poliovirus RNA polymerase inhibition | P03300 | poliovirus polymerase elongation, fluorescence polarization; stronger effect = lower value | % elongation, % (compound at 16.7 µg/mL) | 150,000 compounds, 0.66% hits | AID 588519; in the data active means % elongation below about 90%; further: some results filed as inactive read as strong as hits
# Target sequence (P03300 1749-2209 limits assumed): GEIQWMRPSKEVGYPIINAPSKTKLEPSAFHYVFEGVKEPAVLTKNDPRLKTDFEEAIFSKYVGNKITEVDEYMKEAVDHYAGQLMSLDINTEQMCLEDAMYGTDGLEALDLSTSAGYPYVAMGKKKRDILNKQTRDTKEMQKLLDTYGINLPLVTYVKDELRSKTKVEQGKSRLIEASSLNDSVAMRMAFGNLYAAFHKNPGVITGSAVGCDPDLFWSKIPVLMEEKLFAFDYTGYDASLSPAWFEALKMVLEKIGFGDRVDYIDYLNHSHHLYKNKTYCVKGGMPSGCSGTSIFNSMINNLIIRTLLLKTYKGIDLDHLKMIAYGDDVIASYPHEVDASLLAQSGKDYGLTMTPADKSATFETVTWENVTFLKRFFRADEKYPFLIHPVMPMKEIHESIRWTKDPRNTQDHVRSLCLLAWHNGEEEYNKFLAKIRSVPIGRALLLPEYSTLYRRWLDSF
# PV pol inh intensity: second read-out of PV pol inh, no call of its own (marks repeat the call); % elongation; measured here: total intensity read-out; formula for this scale not given here;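 total fluorescence in place of polarization; lower means less elongation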
# An asterisk follows results filed as active; . = not tested or not shown.
canonical_smiles | PV pol inh | MenB inh | Mtb MbtI inh | PV pol inh intensity
CCOc1ccccc1NC(=O)c1ccc(Br)cc1 | 103 | -14 | . | 108
O=C1OCCC1NC1=NCCC1 (stereo unspecified) | 105 | 16 | 7 | 106
O=C(NCc1ccc2c(c1)OCO2)C1CCCN(c2nc3ccsc3c(=O)s2)C1 (stereo unspecified) | 99 | -22 | -8 | 102
CC(C)COC(=O)C(C)Oc1ccc2c3c(c(=O)oc2c1)CCC3 (stereo unspecified) | 102 | -46 | 13 | 103
Cc1ccc(S(=O)(=O)Nc2ccc(-c3nc4ccccc4o3)cc2)cc1 | 85 | -19 | . | 155
O=C(N/N=C1/SCC(=O)N1Cc1ccco1)c1ccccc1F | 106 | -13 | -6 | 101
COc1ccc2sc(N)nc2c1 | 103 | -13 | 2 | 104
O=C(O)c1ccc(Nc2ncnc3ccc(Br)cc23)cc1 | 102 | 2 | -3 | 103
CCCCC1(C)OC(=O)C(=Cc2ccc(SC)cc2)C(=O)O1 (stereo unspecified) | 101 | 16 | 20 | 104
COC(CNC(=O)CN1C(=O)/C(=C\c2ccc(Cl)cc2)Oc2ccc(C(C)(C)C)cc21)OC | 102 | -8 | 0 | 105
CCOc1ccc(Cc2nc(C)c(CC(N)=O)c(=O)[nH]2)cc1 | 100 | -19 | -11 | 99
COc1ccccc1-c1nnc(SC)n1CCc1ccccc1 | 103 | -26 | -2 | 102
Cc1nc2ccc(O)cc2o1 | 103 | -65 | -26 | 102
O=C1NCCCC1c1n[nH]c(=S)n1-c1ccccc1Cl (stereo unspecified) | 111 | -16 | 2 | 112
COc1ccc(NC2CC(=O)N(C(C)C)C2=O)cc1 (stereo unspecified) | 101 | -70 | -8 | 103
Cc1cccc(C)c1NC(=O)Nc1cc2sccc2n1C | 102 | -10 | 5 | 104
NC(=O)Cc1cn2ccccc2n1 | 101 | -10 | 30 | 105
S=C(NCCCN1CCOCC1)N1CCOCC1 | 100 | 14 | -2 | 104
CCCNC(=O)c1cccc(COCC(F)(F)C(F)F)c1 | 103 | -17 | -9 | 103
CSc1nc2sc3c(c2c(=O)n1CC(C)C)CCC3 | 103 | -43 | -13 | 106
S=c1[nH]nc(NC2CC2)s1 | 102 | -37 | 89* | 96
N/C(CC(=O)Nc1cc(C(F)(F)F)ccc1Cl)=N\O | 104 | 11 | 12 | 99
Oc1ccccc1C1=NCCNC(C(F)(F)C(F)F)=C1 | 100 | -149 | 23 | 102
Cc1occc1C(=O)Nc1ccc(OCc2ccccc2)cc1 | 101 | -11 | . | 104
Cc1oc(-c2ccc(Cl)cc2)cc1C(=O)N1CCC(O)(c2ccc(Cl)cc2)CC1 | 105 | 8 | -12 | 111
Cc1nc(C)c(Oc2ccc(Cl)cc2Cl)c(=O)[nH]1 | 102 | -11 | -7 | 103
O=C1Nc2ccccc2N(c2ccccc2)N1 | . | -37 | 3 | .
CN1CCN(S(=O)(=O)c2cccc3nsnc23)CC1 | 100 | 13 | 18 | 101
COc1cc(-c2ncnn2-c2sc3c(c2C#N)CCCCC3)cc(OC)c1OC | 99 | -57 | -4 | 106
CCN(C(=O)Cc1noc2ccccc12)c1cc(C)ccc1C | 101 | -18 | -5 | 103
CCOC(=O)N1CCN(C(=O)c2cc3c(=O)n(CC)c4ccccc4c3s2)CC1 | 101 | -19 | 13 | 100
O=C(OCc1cn2cc(Cl)ccc2n1)c1ccc(N2CCCC2=O)cc1 | 99 | -22 | 0 | 101
COC(=O)c1ccc(-n2c(C)cc(C(=O)CN3C(=O)CN(C)C3=O)c2C)cc1 | 106 | -12 | 21 | 104
Cc1csc(NC(=O)c2cccc(S(=O)(=O)N(C)C)c2)n1 | 102 | -10 | -37 | 106
C=C(C)C1Cc2cc(/C=C/C(=O)O)c(O)cc2O1 (stereo unspecified) | 100 | -7 | 97 | 104
CCN(CC)CCOC(=O)C1(c2ccc([N+](=O)[O-])cc2)CCCC1 | 99 | -25 | -2 | 102
CC(=O)OC(OC(C)=O)c1ccc(S(N)(=O)=O)cc1 | 103 | -20 | -20 | 102
COC(=O)c1ccc2c(=O)n(CC(C)O)c(=S)[nH]c2c1 (stereo unspecified) | . | -41 | 10 | .
O=C(Cn1cnc2ccccc21)Nc1ccc2c(c1)OCCO2 | 101 | . | -2 | 100
C1COCCOCCOCCN1 | 103 | -26 | -9 | 104
CCCn1c(C)cc(/C=C(\C#N)C(=O)OCc2nc(N)nc(Nc3ccccc3C)n2)c1C | 106 | -13 | 0 | 112
CCCCN(C(=S)Nc1ccccc1CC)C1CCN(C(C)=O)CC1 | 102 | -7 | -4 | 104
Brc1ccc(-n2cc3cnnc(-c4ccccc4)c3n2)cc1 | 103 | -29 | -1 | 107
CCOc1ccc(-n2c(=O)c3ccc(Cl)cc3n3c(Cn4nnc(-c5ccccc5)n4)nnc23)cc1 | 106 | -19 | 90 | 114
CC1CCC/C(=N/NC(=O)Cn2nnc3ccccc32)C1 (stereo unspecified) | 105 | -15 | -4 | 108
COC(=O)c1cc2c(C(F)(F)F)cc(=O)[nH]c2s1 | 104 | . | 22 | 105
O=C(N(c1ccccc1)c1ccc(F)cc1)C12CC3CC(CC(C3)C1)C2 | 104 | -18 | -15 | 109
COC(=O)N/N=C/c1cccc(OC)c1O | 104 | -15 | 0 | 105
CSc1nc2ccccc2n1Cc1ccc(C(C)C)cc1 | 105 | -39 | -12 | 107
O=C(Cc1noc2ccccc12)Nc1ccc(F)cc1 | 100 | -46 | -7 | 104
CC1COC(=O)C(NNc2ccc(Cl)c(Cl)c2)=N1 (stereo unspecified) | 102 | -9 | -7 | 102
CCC(C)OC(=O)COc1ccc2c(=O)c(-c3ccc(OC)c(OC)c3)c(C(F)(F)F)oc2c1 (stereo unspecified) | 102 | -1 | -8 | 103
C=CCN1C(=O)C2(/C(=C(/O)c3ccccc3)C(=O)C(=O)N2CCOC)c2ccccc21 (stereo unspecified) | 101 | 3 | 0 | 103
N#CCCSc1nnc(-c2ccncc2)n1Cc1ccccc1 | 102 | 8 | 0 | 106
Cc1nnc(NCc2ccco2)s1 | 99 | -7 | 6 | 101
NC(=O)c1c(NC(=O)C2CC2)sc2c1CCCC2 | 99 | 7 | . | 103
CCOC(=O)C(C)Sc1nnc(NC(=O)Nc2ccc(F)cc2)s1 (stereo unspecified) | 104 | -17 | -12 | 108
COc1cc(-c2nc3ccccc3nc2-c2ccc(O)c(OC)c2)ccc1O | 101 | -77 | -36 | 103
CC1=C(C(=O)c2ccccc2)C(c2ccc(C)cc2)NC(=O)N1 (stereo unspecified) | 102 | -5 | 8 | 105
NNC(=S)NCCc1ccc(Cl)cc1 | 99 | -13 | -5 | 111

# Ordered by number of heavy atoms (high to low): some entries from above
canonical_smiles | PV pol inh | MenB inh | Mtb MbtI inh | PV pol inh intensity
O=C(N(c1ccccc1)c1ccc(F)cc1)C12CC3CC(CC(C3)C1)C2 | 104 | -18 | -15 | 109
CCOC(=O)C(C)Sc1nnc(NC(=O)Nc2ccc(F)cc2)s1 (stereo unspecified) | 104 | -17 | -12 | 108
CC1=C(C(=O)c2ccccc2)C(c2ccc(C)cc2)NC(=O)N1 (stereo unspecified) | 102 | -5 | 8 | 105
CSc1nc2ccccc2n1Cc1ccc(C(C)C)cc1 | 105 | -39 | -12 | 107
CC1COC(=O)C(NNc2ccc(Cl)c(Cl)c2)=N1 (stereo unspecified) | 102 | -9 | -7 | 102
COC(=O)N/N=C/c1cccc(OC)c1O | 104 | -15 | 0 | 105

# Following part.
canonical_smiles | PV pol inh | MenB inh | Mtb MbtI inh | PV pol inh intensity
CC(C)(C)CC[n+]1ccc(C(N)=O)cc1 | 102 | -16 | 4 | 104
CN(C)C(=O)C(OC(=O)c1ccc(Cl)c(N)c1)c1ccccc1 (stereo unspecified) | 103 | -7 | -28 | 101
COCCCC/C(=N\OCCN)c1ccc(C(F)(F)F)cc1 | 98 | 9 | -17 | 102
CC1CN(c2oc(COc3ccc(Cl)cc3Cl)nc2C#N)CC(C)O1 (stereo unspecified) | 98 | -3 | -9 | 101
CCN(CC(=O)Nc1cc(Cl)ccc1C)C(=O)CC1CCCC1 | 98 | -22 | -8 | 97
Cc1ccc(S(=O)(=O)NCC(=O)OC2CCOC2=O)cc1 (stereo unspecified) | 107 | 5 | -8 | 108
CC(C)(C)/C(O)=C(/C#N)c1nc2ccccc2[nH]1 | 101 | 8 | -66 | 105
COc1cccc(C2=NC(=C(C)C)C(=O)O2)c1 | 102 | 13 | 4 | 102
CC(C(=O)O)N1C(=O)c2cccnc2Sc2ccccc21 (stereo unspecified) | 102 | -4 | -3 | 104
c1ccc2[nH]c(NCCCN3CCOCC3)nc2c1 | 101 | -31 | -5 | 100
CCn1c2ccccc2c2cc(NC(=O)COc3ccc(OC)cc3)ccc21 | 104 | -57 | 1 | 109
COc1cc2c(cc1OC)C(C)N(C(=O)CN1CCOCC1)CC2 (stereo unspecified) | 103 | -39 | -5 | 103
C=CCN1C(=O)S/C(=C/c2cn(CC(=O)O)c3ccccc23)C1=O | 98 | -392 | -6 | 100
COC(=O)C1=C(N)OC2=C(C(=O)CC(C)(C)C2)C1c1ccc(C)cc1 (stereo unspecified) | 104 | -8 | 1 | 102
Cc1cc(C(=O)CC#N)c(C)n1-c1ccccc1F | 102 | . | -3 | 102
Cc1ccccc1NCCC(=O)Nc1ccc(Cl)cc1 | 105 | -15 | -4 | 111
O=C(NCC1COc2ccccc2O1)c1ccc2c(Cl)c3c(nc2c1)CCCC3 (stereo unspecified) | 102 | -34 | -3 | 106
COC(=O)Cn1c(O)c(N=NC(=O)c2ccc3c(c2)OCO3)c2ccccc21 | 100 | -23 | 1 | 102
O=c1cc(CSc2nnc(-c3cccnc3)n2-c2ccccc2F)nc2sccn12 | 94 | -13 | -21 | 149
Cc1oc(-c2ccc(Cl)cc2)cc1C(=O)/C(C#N)=C/Nc1ccccc1 | 103 | -14 | 5 | 106
O=C(Nc1ccc(OC(F)(F)F)cc1)Nc1cc(C(F)(F)F)ccn1 | 103 | 8 | 0 | 102
CCc1ccc(NS(C)(=O)=O)cc1 | 109 | -19 | . | 108
O=C(Cc1ccc(F)cc1)NC1CCCCC1 | 107 | -7 | . | 111
COC(=O)CNC(=O)c1ccccc1C | 99 | 2 | -2 | 106
O=C(/C=C/c1ccc(O)c(O)c1)OC(Cc1ccc(O)c(O)c1)C(=O)O (stereo unspecified) | 103 | 1 | -32 | 100
COCc1c(N)c(C)nc(Cl)c1C#N | 103 | -1 | 89 | 102
NC(=O)c1ccccc1NS(=O)(=O)c1ccccc1 | 101 | -29 | -273 | 99
CC1CCCCN1C(=O)c1ccc(Br)cc1 (stereo unspecified) | 104 | 7 | . | 108
CN1CCc2c(sc(NC(=O)c3ccc(S(=O)(=O)N(C)C)cc3)c2C(N)=O)C1 | 109 | -106 | 4 | 111
CCOC(=O)N1CN(Cc2ccccc2)Cc2c1oc1ccccc1c2=O | 97 | -13 | 115 | 102
Cc1ccsc1CN(C)C(=O)Cn1c(C)nc2scc(-c3cccs3)c2c1=O | 110 | -8 | -1 | 116
COC(=O)Sc1nnc(-c2ccc(Br)cc2)o1 | 101 | -16 | 6 | 104
COC(=O)C1=C(NN(C)c2ccc(OC)cc2)CN(c2ccccc2)C1 | 98 | -30 | . | 96
CCCCNC(=S)Nc1ccc(SC(F)F)cc1 | 100 | -1 | 6 | 101
CCCNC(=O)COc1ccc(OC)cc1 | 104 | -13 | -12 | 102
COc1ccc(C(=O)Nc2cc3c4c(c2)CCN4C(=O)CC3)c(OC)c1 | 101 | -17 | -27 | 106
O=C(CC12CC3CC(CC(Br)(C3)C1)C2)Nc1cccnc1 | 102 | . | -7 | 106
CN(C1CCCCC1)S(=O)(=O)c1ccc(S(=O)(=O)N(Cc2ccccn2)Cc2ccco2)cc1 | 103 | -11 | -1 | 102
COc1cc(/C=N/NC(=O)c2ccc(O)cc2)ccc1OCC(=O)N1CC(C)OC(C)C1 (stereo unspecified) | 99 | -5 | 36 | 97
O=C(CSC1=NCCS1)c1ccccc1Br | 101 | . | 24 | 97
NNC(=O)COc1ccc(Cl)cc1Cl | 104 | -11 | 6 | 99
Cc1nn(CC(N)=S)c(C)c1Br | 108 | -22 | -4 | 108
Cc1ccn2c(CN3CCNCC3)c(C)nc2c1 | 102 | -14 | -96 | 102
Cc1cc(NC(=O)C2CC(=O)N(Cc3ccccc3)C2)no1 (stereo unspecified) | 102 | -15 | -5 | 103
CC1=CC(C)(C)NC(=O)N1c1ccc(C)cc1 | 101 | 1 | -4 | 104
COc1ccc(S(=O)(=O)N2CCc3ccccc32)cc1C(=O)Nc1ccc2c(c1)OCCO2 | 102 | -20 | 29 | 106
CCOCCCNc1n[nH]c(=S)s1 | 88* | -2 | 93 | 88*
CCCSc1nc2c([nH]c3ccccc32)c(=O)n1-c1ccc(F)cc1 | 98 | 4 | 7 | 99
S=C(NCc1ccco1)Nc1ccc(N2CCOCC2)c2nonc12 | 102 | -50 | 3 | 99
CN(c1cc(C(F)(F)F)ccn1)N1C(=O)CSCC1=O | 100 | -10 | -6 | 111
O=C(NC(=S)/C(=C(/[O-])c1ccccc1)[n+]1ccccc1)c1ccccc1 | 98 | -54 | . | 106
COc1ccc(CCNC(=O)CSc2nc3c(cnn3-c3ccc(C)cc3)c(=O)[nH]2)cc1OC | 103 | -13 | 7 | 106

# Entries of single compounds as entered above.
# `CCCSc1nc2c([nH]c3ccccc32)c(=O)n1-c1ccc(F)cc1` reads PV pol inh: 98; MenB inh: 4; Mtb MbtI inh: 7; PV pol inh intensity: 99
# `CCOCCCNc1n[nH]c(=S)s1` reads PV pol inh: 88*; MenB inh: -2; Mtb MbtI inh: 93; PV pol inh intensity: 88*
